Screening results (PubChem BioAssay)
VCAM-1 inhibition – inhibitors of TNFa-induced VCAM-1 surface display, cell-based, plate reader, pooled HUVEC, TNFa stimulus (AID 454); HUVEC TNFa-induced VCAM-1 surface immunofluorescence, plate reader; numbers were filed only for top-ranked candidate wells; inhibition, % at 5 µM; 0.2% of 10,000 active;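 active = compound among top-ranked inhibitors of TNF-induced VCAM-1 adhesion protein staining, with the hit upheld by image or statistical review; inactive = the rest, including hits rejected on review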;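 note: 0% = TNFa with vehicle and 100% = cells without TNFa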
FPR ligand – ligands of human FPR, also counter-screen for FPRL1 ligands; P21462; FPR-expressing cells, fluorescent ligand binding, flow cytometry; inhibition, %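 (tested at 6.7 µM)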; 0.74% of 24,000 active; AID 440;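 note: 0% = buffer wells and 100% = receptor blocker peptide wells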
Target sequence (P21462 whole entry, looked up): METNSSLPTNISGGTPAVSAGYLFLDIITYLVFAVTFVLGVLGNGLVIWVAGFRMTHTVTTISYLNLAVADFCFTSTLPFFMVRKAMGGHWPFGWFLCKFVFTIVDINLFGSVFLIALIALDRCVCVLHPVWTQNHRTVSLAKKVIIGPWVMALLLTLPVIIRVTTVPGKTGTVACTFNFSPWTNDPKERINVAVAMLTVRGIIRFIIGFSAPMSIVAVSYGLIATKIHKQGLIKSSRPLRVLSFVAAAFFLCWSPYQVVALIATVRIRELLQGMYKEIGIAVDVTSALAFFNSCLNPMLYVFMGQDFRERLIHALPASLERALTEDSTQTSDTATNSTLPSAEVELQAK
VCAM-1 up imaging – enhancers of VCAM-1 display on endothelial cells, imaging, high-content imaging, pooled HUVEC, TNFa stimulus (AID 457); Pooled HUVEC, TNFa-induced VCAM-1 immunofluorescence imaging; hits of this screen are not shown here; calls only; 0.2% of 10,000 active;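 active = a top-ranked rise in VCAM-1 staining upheld on image or statistical review; inactive = the rest, including candidates rejected on review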;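 note: compounds tested at 5 µM in the well; cells exposed to compound for 24 hours before fixing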
VCAM-1 imaging – suppression of endothelial VCAM-1 upregulation – imaging, high-content imaging, pooled HUVEC, TNFa stimulus (AID 456); HUVEC TNFa-induced VCAM-1 surface expression, immunofluorescence imaging; numbers were filed only for top-ranked candidate wells; 0.2% of 10,000 active; inhibition, % at 5 µM, or IC50 in µM where a hit was titrated;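 active = top tenth filtered wells with inhibition above zero that passed visual or statistical confirmation; inactive = the rest, including hits rejected on review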;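 note: 0% = stimulated vehicle wells and 100% = unstimulated cells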
FPRL1 binder – human FPRL1 ligand, with FPR counter-screen | FPRL1-expressing cells, fluorescent ligand binding inhibition, flow cytometry | inhibition, %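 (tested at 6.7 µM)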 | 0.3% of 24,000 active | AID 441;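 note: 0% = buffer alone and 100% = receptor blocker peptide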
Target sequence (P25090 whole entry, looked up): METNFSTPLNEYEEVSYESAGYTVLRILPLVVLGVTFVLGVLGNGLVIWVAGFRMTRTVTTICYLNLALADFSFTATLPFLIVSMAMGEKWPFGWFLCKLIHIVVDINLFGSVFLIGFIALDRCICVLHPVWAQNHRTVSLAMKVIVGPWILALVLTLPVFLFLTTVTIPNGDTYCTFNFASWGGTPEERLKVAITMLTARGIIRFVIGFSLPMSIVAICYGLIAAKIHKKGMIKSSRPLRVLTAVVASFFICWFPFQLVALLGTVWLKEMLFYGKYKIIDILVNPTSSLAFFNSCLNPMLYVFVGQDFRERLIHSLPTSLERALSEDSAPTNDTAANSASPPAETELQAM
* = called active by the depositor; i = inactive; x = no result given.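 Rule for the calls, unless noted: active = mean above 30%; inconclusive = self-fluorescent; inactive = the rest.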 Not all compounds are listed; count on the stated rates, not on these rows.

SMILES	VCAM-1 inhibition	FPR ligand	VCAM-1 up imaging	VCAM-1 imaging	FPRL1 binder
Fc1cccc(Nc2ncnc3c2cnn3-c2ccccc2)c1	i	-2.0	i	i	-1.9
CCn1cc(C(=O)NCC2CCCO2)c(=O)c2cc(S(=O)(=O)N3CCCCC3)ccc21 (configuration not stated)	x	-0.3	x	x	5.1
CCOc1ccc(OCC)c(NC(=O)C2CCCN(S(=O)(=O)c3c(C)noc3C)C2)c1 (configuration not stated)	x	2.2	x	x	-0.7
CCC(=O)Oc1ccc2c(=O)c(-c3ccc4ccccc4n3)c(CC)oc2c1C	x	2.2	x	x	-7.7
O=C(C1CCC1)N1CCc2cc(S(=O)(=O)N3CCN(c4ccccn4)CC3)ccc21	x	-5.8	x	x	0.8
CC(C)c1nnc(SCC(=O)NCc2ccco2)n1C	i	-1.7	i	i	5.2
COc1ccccc1N1CCN(c2cc(=O)n(Cc3ccc(F)cc3)c(=O)[nH]2)CC1	i	2.7	i	i	-4.3
O=C(C(c1ccccc1)c1ccccc1)N1CCN(Cc2ccccn2)CC1	i	2.0	i	i	11.9
CCCCCC1CC(=O)N(Cc2ccccc2)C(=O)N1 (configuration not stated)	x	0.0	x	x	-8.5
COc1ccccc1CNC(=O)CCN1C(=O)COc2ccccc21	x	3.3	x	x	-2.5
CN1CCN(C(=O)c2ccc3c(=O)n(Cc4ccc(Cl)cc4)c(=S)[nH]c3c2)CC1	x	1.8	x	x	3.0
CCCCOC(=O)C1=C(C)Nc2ncnn2C1c1ccc(OCC)c(OC)c1 (configuration not stated)	x	23.0	x	x	-9.4
Cc1nc(CCNC(=O)Cc2ccccc2)cs1	x	-2.8	x	x	1.0
O=C(CN1CCN(CC(=O)c2ccc(F)cc2)CC1)Nc1ccccc1Cl	x	-0.7	x	x	-1.7
Fc1c(F)c(F)c(CSc2nc3ccccc3[nH]2)c(F)c1F	i	2.4	i	i	5.5
COC(=O)C1C(=O)C2=C(CC1C)NC(C)=C(C(=O)OCCOc1ccccc1)C2c1ccc(C)o1 (configuration not stated)	x	21.0	x	x	-3.9
NC(=O)COc1ccc(=O)n(-c2ccccc2)n1	x	-6.3	x	x	-4.1
O=C(O)C(Cc1ccccc1)n1cccc1 (configuration not stated)	x	13.5	x	x	-2.0
O=C(c1cc(-c2cccs2)on1)N1CCOCC1	x	-4.3	x	x	-3.5
O=S(=O)(NCc1ccccc1Cl)c1cnc[nH]1	x	-1.2	x	x	3.0
Cc1cc2ccccc2n1CCNC(=O)C1CC1	i	3.2	i	i	3.8
COc1ccc(S(=O)(=O)Cc2ccc(C(=O)NCc3cccs3)o2)cc1	x	4.1	x	x	0.0
O=C(C(NS(=O)(=O)c1cccs1)c1ccccc1)N1CCN(c2ccccc2)CC1 (configuration not stated)	x	-1.4	x	x	-22.1
Cc1cc2c(=O)n(CC(=O)N3CCN(c4ccccc4)CC3)cnc2s1	i	-2.1	i	i	-0.9
O=C(O)CCCCCNc1nc(=S)[nH]c2ccccc12	i	3.5	i	i	-2.0

Whole records, looked up by structure. Order of values: VCAM-1 inhibition | FPR ligand | VCAM-1 up imaging | VCAM-1 imaging | FPRL1 binder
COC(=O)C1C(=O)C2=C(CC1C)NC(C)=C(C(=O)OCCOc1ccccc1)C2c1ccc(C)o1 (configuration not stated) in the list: x | 21.0 | x | x | -3.9
CCCCCC1CC(=O)N(Cc2ccccc2)C(=O)N1 (configuration not stated) in the list: x | 0.0 | x | x | -8.5

Other structures
SMILES	VCAM-1 inhibition	FPR ligand	VCAM-1 up imaging	VCAM-1 imaging	FPRL1 binder
CC(NC(=O)c1cc2ccccc2o1)c1cccs1 (configuration not stated)	x	7.2	x	x	4.2
CCOC(=O)N1CCC(N2CC34C=CC(O3)C(C(=O)Nc3ccc(C)cc3)C4C2=O)CC1 (configuration not stated)	x	-2.2	x	x	1.8
CC(C)n1c(NCc2cc(Cl)ccc2O)nc2ccccc21	x	6.2	x	x	2.8
CN1C(=O)CS(=O)c2ccc(C(=O)NC3CC3)cc21 (configuration not stated)	x	-1.6	x	x	-3.3
COc1ccc(N2C(=O)C3CCCN3C2c2cccc(OC)c2OC)cc1 (configuration not stated)	x	-3.6	x	x	-0.8
CCC(CC)c1nnc(NC(=O)c2c(-c3ccccc3)noc2C)s1	x	13.3	x	x	-4.3
CCOc1ccccc1NC(=O)C1CCN(S(=O)(=O)c2c(C)nn(C)c2C)CC1	x	-5.4	x	x	-6.7
COC(=O)c1ccc(C(=O)OC)nc1	x	1.6	x	x	0.1
COC(=O)c1ccccc1NC(=O)COc1ccc(S(=O)(=O)N2CCCC2)cc1C	i	-3.2	i	i	5.1
Cc1nc2c(ccc3nc(NC(=O)c4ccc5c(c4)OCCO5)sc32)s1	x	2.6	x	x	0.5
COc1ccc(N2CCN(C(=O)Cn3c(=O)[nH]c4ccsc4c3=O)CC2)cc1	x	1.7	x	x	0.0
Cc1cccc2sc(NC(=O)CN(C)S(=O)(=O)c3cccs3)nc12	i	0.8	i	i	-2.7
CCOC(=O)CNC(=O)CN1CCCN(S(=O)(=O)c2ccc(Br)s2)CC1	x	-24.5	x	x	-0.8
Cc1ccccc1CN1CCN(CC(=O)NCc2ccc3c(c2)OCO3)C1=O	x	-0.3	x	x	-1.0
CCOC(=O)c1cc(-c2ccc(C)cc2)n(CC(=O)NCc2ccco2)c1C	x	8.9	x	x	11.3
c1cncc(C2Nc3ccccc3-c3nc4ccccc4n32)c1 (configuration not stated)	i	3.3	i	i	-3.7
COc1cccc(-c2cc(C(=O)Nc3c(C)nn(Cc4ccccc4)c3C)no2)c1	i	-3.4	i	i	-0.4
CCOC(=O)c1c(C)c(C(=O)Nc2ccccc2)c(C)n1CC	x	4.4	x	x	1.4
O=C(NC1CCCC1)C1c2ccccc2C(=O)N1CCCN1CCOCC1 (configuration not stated)	x	8.0	x	x	4.1
Cc1cc(=O)n2nc(-c3ccccc3)sc2n1	i	-6.3	i	i	-1.5
COc1cc2nc(N3CCN(C(=O)c4ccco4)CC3)nc(N)c2cc1OC	i	3.1	i	i	1.6
Cc1c2c(nc3c(C(=O)NC4CC4)cnn13)CCCC2	x	1.7	x	x	2.5
CCCCc1cc(=O)oc2cc(OCC(=O)N(CC)CC)c(Cl)cc12	i	5.8	i	i	0.8
CCOc1ccc(OCC)c(NC(=O)CNS(=O)(=O)c2cccs2)c1	x	7.7	x	x	0.8
Cc1ccccc1Cn1nc(C)c(NC(=O)c2noc3c2CC(C(C)(C)C)CC3)c1C (configuration not stated)	x	1.8	x	x	-1.1

Continuation:
SMILES	VCAM-1 inhibition	FPR ligand	VCAM-1 up imaging	VCAM-1 imaging	FPRL1 binder
Fc1cccc(C2CC(c3cccc(Br)c3)Nc3nnnn32)c1 (configuration not stated)	x	25.1	x	x	28.7
O=C(C1=C(O)C(=O)N(CCN2CCOCC2)C1c1ccccc1)c1cccs1 (configuration not stated)	x	44.2*	x	x	28.4
CCCN1CC23C=CC(O2)C(C(=O)O)C3C1=O (configuration not stated)	i	-2.4	i	i	-0.5
Cc1ccc(N(C(=O)C2CCCO2)C2C=CS(=O)(=O)C2)cc1Cl (configuration not stated)	x	-3.0	x	x	-1.2
CCCCn1c(CN2CCN(c3ccccc3)CC2)nc2c1c(=O)n(C)c(=O)n2C	i	-5.7	i	i	3.2
O=C(CCn1c(=O)sc2ccccc21)NCc1cccs1	x	-1.9	x	x	16.2
CCOc1ccccc1C(=O)Nc1ccc2nc(N3CCN(c4ncccn4)CC3)cc(C)c2c1	x	-14.5	x	x	0.3
O=C(O)CC12CSc3[nH]c(=O)sc3C1c1ccccc1OC2=O (configuration not stated)	x	10.4	x	x	-2.2
Cc1c(C#N)c2ccccc2n1CC(=O)N1CCc2ccccc2C1	i	-6.4	i	i	-2.8
COc1ccccc1-c1c(C)nn2c(N3CCCCCC3)cc(C)nc12	x	10.0	x	x	1.8
CCc1ccc(NC(=O)Cn2c(=O)oc3cc(S(=O)(=O)N4CCOCC4)ccc32)cc1	x	2.6	x	x	2.6
COc1ccc(-c2nc(CS(=O)CC(=O)NCc3ccc4c(c3)OCO4)c(C)o2)cc1 (configuration not stated)	x	19.6	x	x	-0.5
COc1ccc(NC(=O)c2ccc(COc3ccccc3Br)o2)cc1OC	x	-1.5	x	x	3.0
COc1ccc(N2C(=O)C3CCCN3C2c2cccs2)cc1 (configuration not stated)	x	3.3	x	x	-6.7
CC1CN=C(c2cccn2Cc2ccc(F)cc2Cl)O1 (configuration not stated)	x	-3.3	x	x	4.0
O=C(C1CCN(S(=O)(=O)c2ccc(-n3cnnn3)cc2)CC1)N1CCN(c2ccccc2)CC1	i	0.7	i	i	-3.4
CC(C)CCN(C)C1CCN(S(=O)(=O)c2cccc(C(F)(F)F)c2)CC1	x	-4.2	x	x	-5.1
CCOC(=O)CSc1nnc(CNC(=O)c2ccc(OC)cc2)n1-c1ccc(OC)cc1	x	1.7	x	x	-1.2
Cc1cc(NC(=O)c2cc(C)on2)n(-c2ccccc2)n1	x	-1.1	x	x	-0.8
CCOc1ccccc1NC(=O)C1CCN(S(=O)(=O)c2c(C)noc2C)CC1	x	-8.4	x	x	-7.3
CC(C)(C)C(=O)/C=C(\N)c1ccccn1	i	-1.9	i	i	-2.2
CCOc1ccc(/C(O)=C2/C(=O)C(=O)N(CCOCCO)C2c2ccccc2)cc1 (configuration not stated)	x	-5.7	x	x	-2.3
Cc1oc2cc(OC(C)C(=O)O)ccc2c(=O)c1Oc1ccccc1 (configuration not stated)	x	-24.6	x	x	-4.6
COc1ccc(-n2c(Cc3cccn3C)nnc2SCC(=O)Nc2ccc(F)cc2)cc1	x	4.5	x	x	2.7
CCN(CC)S(=O)(=O)c1ccc2[nH]cc(C(=O)NCCN3CCCCC3C)c(=O)c2c1 (configuration not stated)	x	-3.4	x	x	9.4

More structures.
SMILES	VCAM-1 inhibition	FPR ligand	VCAM-1 up imaging	VCAM-1 imaging	FPRL1 binder
Cc1cc(=O)[nH]c(SCc2nc3ncccn3c2Br)n1	i	-2.1	i	i	-2.6
N#Cc1c(-c2ccco2)cc(C2CC2)nc1SCC(=O)c1ccccc1	x	2.4	x	x	0.2
CCOC(=O)N1CCN(C(=O)C2CCN(c3ncnc4c3sc3cccc(F)c34)CC2)CC1	x	-3.1	x	x	-7.3
O=C(CN1CCN(c2ccc(Cl)cc2)CC1)c1ccc2c(c1)OCO2	x	4.9	x	x	6.1
COC(=O)C1(C)NC(c2cccs2)C2C(=O)N(c3ccccc3F)C(=O)C21 (configuration not stated)	i	-5.9	i	i	5.5
CC1Cc2nc(SCC(=O)Nc3nccs3)n(C)c(=O)c2S1 (configuration not stated)	i	7.5	i	i	2.9
COc1ccc(N2C(=O)CC(N3CCN(c4ccccc4F)CC3)C2=O)cc1 (configuration not stated)	i	-2.5	i	i	-2.6
CC1CCCCN1CCCNC(=O)C1CCN(c2nc3ccccc3o2)CC1 (configuration not stated)	x	-4.4	x	x	4.3
Cc1ccccc1Cn1cc(/C=N/n2cnnc2)c2ccccc21	i	-2.5	i	i	-4.4
O=S(=O)(CCOc1ccccc1)c1nc2ccccc2[nH]1	i	4.7	i	i	-2.6
O=C(NC1CCCCCC1)C1c2ccccc2C(=O)N1C1CC1 (configuration not stated)	x	0.4	x	x	-7.3
O=C(Nc1ccc(CN2CCOCC2)cc1)c1cc2ccccn2n1	i	-3.2	i	i	-8.4
COc1ccc(OC)c(C2C3=C(CCCC3=O)Nc3nc4ccccc4n32)c1 (configuration not stated)	x	-0.9	x	x	-2.8
CCN1CCN(C(=O)c2cn(CC)c3ccc(S(=O)(=O)N(C)C)cc3c2=O)CC1	i	0.3	i	i	0.2
CCOc1ccccc1OCCn1nnc2ccccc21	i	-1.5	i	i	-0.2
CCOc1cc(C2C(C#N)=C(N)OC(C)=C2C(C)=O)cc(Br)c1O (configuration not stated)	i	9.9	i	i	-8.5
Cc1cc(N2C(=O)C(O)=C(C(=O)c3ccc(C)o3)C2c2cccs2)no1 (configuration not stated)	i	-5.1	i	i	2.9
COc1ccc(N(CC(=O)N2CCc3ccccc32)S(=O)(=O)c2c(C)noc2C)cc1	x	-6.6	x	x	-2.8
COc1ccc(-c2cc(C(F)(F)F)nc(NC3CCCC3)n2)cc1OC	x	6.9	x	x	31.5*

Gathered by group: the compounds so far with bromine.
SMILES	VCAM-1 inhibition	FPR ligand	VCAM-1 up imaging	VCAM-1 imaging	FPRL1 binder
CCOC(=O)CNC(=O)CN1CCCN(S(=O)(=O)c2ccc(Br)s2)CC1	x	-24.5	x	x	-0.8
Fc1cccc(C2CC(c3cccc(Br)c3)Nc3nnnn32)c1 (configuration not stated)	x	25.1	x	x	28.7
COc1ccc(NC(=O)c2ccc(COc3ccccc3Br)o2)cc1OC	x	-1.5	x	x	3.0
Cc1cc(=O)[nH]c(SCc2nc3ncccn3c2Br)n1	i	-2.1	i	i	-2.6
CCOc1cc(C2C(C#N)=C(N)OC(C)=C2C(C)=O)cc(Br)c1O (configuration not stated)	i	9.9	i	i	-8.5
